FGF22 binding: binders of recombinant human FGF22 by thermal shift; Q9HCT0; SYPRO orange fluorescence; percent of sucrose octasulfate shift, DMSO zero; calls only at 9.99 µM; 340,000 tested, 1.5% active; AID 651658;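 active = melting point raised past a set limit in the mean and every replicate; inconclusive = no clear call; three in four hits are not shown here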
Target sequence (Q9HCT0 whole entry, looked up): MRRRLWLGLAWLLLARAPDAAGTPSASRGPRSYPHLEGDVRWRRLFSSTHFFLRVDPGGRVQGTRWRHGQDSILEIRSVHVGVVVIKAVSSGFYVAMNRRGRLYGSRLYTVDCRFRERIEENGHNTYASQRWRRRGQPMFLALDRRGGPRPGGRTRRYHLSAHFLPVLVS
rRNA inh HTS: inhibits bacterial ribosomal RNA function over humanized ribosomes; E. coli WT GFP vs humanized-ribosome RFP mutants, fluorescence, 24 h; active compounds read low; DMSO median 0, no signal -100; GFP signal change (wild-type ribosome), % (test concentration not listed); 350,000 tested, 1.6% active;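 active = significant combined selectivity score with lowered wild-type GFP, culture density cut under 30%, mutant RFP and density less affected; inactive = any of these conditions unmet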; note: one replicate is shown; some compounds called inactive have numbers as strong as hits
Ecoli growth: inhibitors of Escherichia coli growth; OD600, 23 h; active compounds read low; OD600 absorbance (test concentration not listed); 330,000 tested, 0.21% active; AID 1053175;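 active = OD600 absorbance below the run mean of sample wells minus 3.6 SD, in any replicate, cut at about 0.56 in these data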;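 note: stock transfer was 300 nL into about 60 µL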
A1 inh: inhibitors of the anti-apoptotic protein A1, read as caspase activation; MEF A1-2A-BIM cells, Caspase-Glo 3/7 luminescence, 3 h; percent of clofoctol response, vehicle zero; caspase activation, % (concentration not given with the values); 330,000 tested, 0.066% active; AID 2462;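 active = over half of replicate activation scores above 10%, or exactly half above 10 with the replicate mean above 10; inconclusive = replicate mean below 10 yet half the replicates above 10; inactive = over half of replicates below 10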;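 note: wells of about 30 µL received 50 nL stock; many hits fall short of the cut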
MLL AF4-AF9 inh: blocks AF4 peptide binding to human AF9; P42568; AlphaScreen, biotin-AF4 peptide binding to FLAG-AF9; inhibition, % at 10 µM; 350,000 tested, 0.47% active; AID 651704;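 active = every replicate reaching a set inhibition limit, whatever the replicate mean, cut at about 25% in these data; inconclusive = mean inhibition reaches that limit but some replicates miss it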;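 note: 0% = plate neutral control median and 100% = total signal loss; the record names both 10 and 1 µM as test concentration; the first replicate is given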
Target sequence (P42568 whole entry, looked up): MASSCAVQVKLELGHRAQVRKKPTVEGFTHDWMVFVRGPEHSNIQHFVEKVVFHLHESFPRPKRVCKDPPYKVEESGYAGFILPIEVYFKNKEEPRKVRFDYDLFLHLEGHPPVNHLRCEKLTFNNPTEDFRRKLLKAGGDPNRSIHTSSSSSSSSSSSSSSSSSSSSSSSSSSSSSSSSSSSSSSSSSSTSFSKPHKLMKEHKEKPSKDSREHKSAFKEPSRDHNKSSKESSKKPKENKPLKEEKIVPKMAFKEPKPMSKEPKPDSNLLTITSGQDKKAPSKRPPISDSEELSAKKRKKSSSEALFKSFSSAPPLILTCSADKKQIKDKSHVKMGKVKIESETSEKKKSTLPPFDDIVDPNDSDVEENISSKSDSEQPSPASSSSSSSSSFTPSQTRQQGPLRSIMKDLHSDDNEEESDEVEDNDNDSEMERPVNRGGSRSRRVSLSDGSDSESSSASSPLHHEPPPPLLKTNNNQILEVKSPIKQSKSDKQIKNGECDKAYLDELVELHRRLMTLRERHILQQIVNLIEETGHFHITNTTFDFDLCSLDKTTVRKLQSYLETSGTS
T cruzi repl: blocks replication of Trypanosoma cruzi; T. cruzi beta-gal in NIH3T3, luminescence, 90 h; inhibition, % (no concentration beside the values); 300,000 tested, 1.4% active;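 active = mean inhibition across valid replicates above about 55%, limit read from the data; inconclusive = mean below that limit but half or more replicates reach it; inactive = mean below it, under half of replicates reach it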;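 note: signal also drops with host cell toxicity which is not excluded here; 0% = plate median of DMSO wells and 100% = zero luminescence signal; higher percent means less beta-gal luminescence so fewer parasites; stock transfer was 50 nL into about 50 µL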
Beta apoptosis: beta cell apoptosis inhibition; INS-1E cytokine-induced death, ATP luminescence, 48 h; percent of positive-control rescue, neutral wells zero; protection from apoptosis, % (no concentration beside the values); 300,000 tested, 0.8% active; AID 435005;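 active = all replicates at 75% or more, or half of them and the mean; inconclusive = half reach 75% but not the mean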;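 note: 0% = cytokine-treated negative control wells and 100% = positive control rescue; higher means more ATP so stronger rescue from cytokine killing; wells of about 40 µL received 100 nL stock; the first replicate is given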
UCH37 inh: human UCH37 deubiquitinating enzyme inhibition; Q9Y5K5; purified proteasome/UCH37, Ub-AMC cleavage fluorescence; inhibition, % (concentration not given with the values); 330,000 tested, 0.33% active; AID 588478;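 active = mean of two replicates above 20%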;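 note: 0% = compound-free wells with enzyme and 100% = wells lacking proteasome; stock transfer was 100 nL into about 20 µL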
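Assay system: Proteasome-bound UCH37. Buffer or medium: pH 7.4 Tris-HCl (50 mM) with ovalbumin, ATP-MgCl2, DTT. Incubation: 30 min preincubation with enzyme, 25 min cleavage at room temperature. Measured by: fluorescence, ex 355 nm, em 460 nm. Read-out basis: percent inhibition. Control set: wells without proteasome as full block, compound-free enzyme plus substrate as uninhibited.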
rRNA inh HTS OD600: further read-out of rRNA inh HTS, marked with its call; OD600 change, %; measured here: OD600 growth;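 optical density of the mix in the first replicate; 0 = DMSO median and -100 = no signal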
rRNA inh HTS RFP: second read-out of rRNA inh HTS, no call of its own (marks repeat the call); RFP signal change, %; measured here: RFP humanized mutant strains;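 first replicate; 0 = DMSO median and -100 = no signal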
An asterisk follows results filed as active; i = inactive; u = inconclusive; x = not tested or not shown.

structure	rRNA inh HTS RFP	FGF22 binding	A1 inh	Ecoli growth	UCH37 inh	MLL AF4-AF9 inh	T cruzi repl	Beta apoptosis	rRNA inh HTS	rRNA inh HTS OD600
NC(=O)c1nc(-c2cccs2)nc2c1[nH]c(=O)n2-c1ccc(F)cc1	3.5	i	0.3	0.75	-9.9	9.6	-17.8	42.1	7.2	5.1
CC(C)(C)OC(=O)CC[C@@H](C(=O)NCCCCCCCCCCC(=O)N1CCN(C(=O)OC(C)(C)C)CC1)n1cc(CCCCCNC(=O)OC(C)(C)C)nn1	1.2	i	0.1	x	0.3	-1.4	x	12.1	9.3	7.3
NS(=O)(=O)c1ccc(CCNC(=O)COC(=O)C2CCCN2C(=O)c2cccs2)cc1 (stereo not given)	x	x	0.1	0.692	1.9	x	-8.5	-0.6	x	x
Cc1cc(NC(=O)CSc2c3c(nc4ccccc24)CCC3)no1	5.8	i	-0.7	0.742	4.9	0.2	1.5	-10.8	-1.7	12.6
Cc1sc2ncnc(OCC(=O)Nc3ccc4c(c3)OCCO4)c2c1C	x	x	0.0	0.773	-4.6	x	-8.7	-6.3	x	x
CC(=NO)C1CCC2C3CCC4=CC(=NO)CCC4(C)C3C(=O)CC12C (stereo not given)	-3.2	i	x	0.681	3.6	10.2	x	x	-23.7	-29.2
O=C(COc1ccc(F)cc1Cl)Nc1cc(S(=O)(=O)N2CCOCC2)ccc1N1CCCCC1	3.6	i	0.1	0.747	-1.1	0.4	63.3*	2.9	9.0	10.1
O=S(=O)(Nc1cccnc1)c1cc(Cl)ccc1Cl	x	x	-0.5	0.663	1.3	x	-29.3	-5.7	x	x
Cc1nn(C)cc1S(=O)(=O)N1CCCCC1C (stereo not given)	-3.2	i	0.5	0.671	0.6	-0.5	-5.0	-5.5	5.0	8.2
O=S(=O)(c1ccc(F)cc1)c1snnc1-c1ccccc1	-6.5	i	0.6	0.674	0.9	4.2	4.1	-8.7	-31.4	-37.1
COC(=O)Cn1cnc2c(nnn2-c2ccc(OC)cc2)c1=O	0.2	i	-1.0	0.675	-0.1	0.3	2.0	-2.7	9.9	5.8
CSc1nc(N)n(-c2cc(C(F)(F)F)ccn2)n1	x	i	-0.1	0.705	0.4	-0.4	x	-9.8	x	x
Cc1cc(C)cc(-n2nnc(C(=O)NCc3ccco3)c2N)c1	x	x	-0.5	0.691	5.0	x	-0.7	7.0	x	x
Cc1ccc(C(=O)Sc2cccccc2=O)cc1	4.1	i	-1.6	0.145*	8.6	5.2	u	34.0	-7.3	-13.4
O=[N+]([O-])c1ccc(S(=O)(=O)Nc2ncccn2)cc1	-1.4	i	2.8	0.676	1.8	-2.1	1.9	0.8	13.8	0.1
c1ccc(SCc2cn3cccnc3n2)nc1	1.7	i	-0.6	0.599	-307.8	-1.0	-18.3	-1.6	11.1	15.5
CC(=O)N1c2ccc(S(=O)(=O)N(C)CC(=O)Nc3ccccc3C)cc2CC1C (stereo not given)	-1.0	i	-0.2	0.63	1.0	0.0	-3.1	-4.3	-2.4	4.0
Cc1cc(NC(=O)CSc2nc3ccccc3cc2C#N)no1	-0.7	i	0.7	0.619	-0.6	-2.9	0.0	-5.8	5.9	8.3
COC(=O)[C@@H](NC(=O)CCc1nnc(-c2ccsc2)o1)C(C)C	0.5	i	-0.2	0.685	0.2	-1.1	-8.8	-7.2	3.5	6.0
COc1ccc(NS(=O)(=O)c2ccc(C)c(NC(=O)C3CCCO3)c2)cc1 (stereo not given)	0.5	i	0.4	0.686	1.4	1.2	x	0.3	2.2	-1.6
Cc1c(C(=O)N2CCCCC2)c(S(=O)(=O)NCCc2ccc(Cl)cc2)c(C)n1C	-1.2	i	1.7	0.723	5.4	2.6	23.5	x	9.2	0.3
O=C(CCc1ccccc1)Nc1ccc(N2CCCCC2)cc1	x	x	-0.7	0.736	2.4	x	16.8	9.1	x	x
CS(=O)(=O)N1CCC(C(=O)N2CCC(Cc3ccccc3)CC2)CC1	x	x	0.1	0.692	4.6	x	-4.1	1.4	x	x
COc1ccc(CNC(=O)COC(=O)c2cncc(Br)c2)cc1	2.8	i	1.3	0.709	7.0	-1.0	-8.9	-3.8	26.3	34.0
Cc1cc(C)c(C(=O)/C=C/C=C/c2ccccc2)c(=O)[nH]1	x	x	-0.5	0.739	14.0	x	8.3	-0.8	x	x
O=[N+]([O-])c1ccc2c(c1)C(N1CCOCC1)/C(=C/COc1ccc(Cl)cc1Cl)O2 (stereo not given)	x	x	-0.4	x	3.0	x	11.3	8.7	x	x
Cc1cc(=O)oc(C)c1C(=O)NCCN(C)Cc1ccccc1	1.9	x	-0.3	0.716	14.3	5.2	12.9	-3.9	2.5	12.7
Cc1ccc(-n2c(SCC(=O)N/N=C/c3ccccc3C(=O)O)nnc2-c2ccc(Cl)cc2)cc1	0.4	i	-0.8	x	x	-4.7	-4.5	-5.4	7.4	2.9
CCOc1ccc2nc(SCC(=O)Nc3cccc(S(=O)(=O)NC4=NCCCCC4)c3)[nH]c2c1	8.7*	x	-0.5	0.703	2.5	0.4	1.5	-5.9	-27.2*	-13.3*
O=C(NC(=S)N1CCCC1)c1ccccc1F	-0.6	i	-0.3	0.696	0.6	-3.9	x	-2.4	5.5	7.5
CSc1cccc(NC(=O)C2C3C=CC4(O3)C2C(=O)N(CCN2CCOCC2)C4C(=O)NC2CCCCC2)c1 (stereo not given)	-1.8	i	-0.7	0.647	1.6	3.1	-4.3	-7.0	-0.2	5.8
CCOc1ccc(CC(=O)NCCc2cnc[nH]2)cc1	-0.5	i	-0.9	0.624	-0.7	-1.2	14.7	-7.3	13.4	19.4
CN(CCCC(=O)O)S(=O)(=O)c1ccc2c(c1)C(=O)c1cc(S(=O)(=O)N(C)CCCC(=O)O)ccc1-2	-2.0	i	2.0	0.719	3.2	0.7	-12.0	-2.4	-1.0	7.7
COc1ccccc1N1CCN(Cc2nc(N)nc(Nc3ccc(C)cc3)n2)CC1	x	x	-0.3	0.731	6.4	x	-11.3	x	x	x
CCCNC(=O)NC(=O)COc1ccc2oc3ccccc3c2c1	x	x	0.6	0.698	-0.7	x	-1.9	-5.8	x	x
COc1ccc(C(=O)O)cc1Nc1cc(C)nc2ncnn12	-0.9	i	0.6	0.768	4.2	1.7	0.9	2.7	11.4	8.1
CCOC(=O)c1sc(=S)n(C)c1N	x	x	0.6	0.71	0.5	x	13.3	-3.2	x	x
Cc1cc(=O)oc(C)c1C(=O)N1CCN(C(c2ccccc2)c2ccccc2)CC1	x	x	0.5	0.685	1.8	x	-4.4	-6.2	x	x
O=C(C1CC(=O)N(C2CCCCC2)C1)N1CCc2ccccc21 (stereo not given)	3.6	i	0.0	0.721	0.5	-0.2	5.5	2.1	7.3	9.1
COC(=O)C(C)NC(=O)CNS(=O)(=O)c1ccc(F)cc1 (stereo not given)	-0.4	i	0.1	0.704	-0.4	-0.9	-3.4	-0.1	16.8	12.9
Clc1ccc(-c2c(C3=NCCCN3)nnn2-c2ccc(Cl)cc2)cc1	1.2	i	0.6	0.647	0.5	2.3	18.0	-1.0	8.2	8.3
COc1ccc(C(=O)CC(=O)C(=O)Nc2ccc([N+](=O)[O-])cc2C)cc1	-3.8	i	2.3	0.585	6.2	2.6	4.7	16.5	2.2	-1.6
NC(=O)c1cc([N+](=O)[O-])ccc1NCCN1C(=O)c2ccc(C(=O)O)cc2C1=O	1.8	i	-0.1	0.709	10.4	0.5	-10.5	-0.1	17.0	6.3
C/C(=C\C(=O)c1sccc1Cl)N(C)C	5.3	i	-0.1	0.654	15.7	-0.6	-26.3	2.9	-10.5	3.9
O=C(CCC(=O)c1cccs1)Nc1ncccc1O	1.6	i	1.2	0.662	-1.1	-0.6	-6.9	-0.8	8.3	-2.5
COc1cccc(C(=O)N2CCC(n3nccc3NC(=O)C3CCOC3)CC2)c1 (stereo not given)	-0.3	i	-0.2	0.703	-0.3	-2.4	-7.0	-0.4	6.7	7.3
COc1nsnc1N1CCOCC1	1.7	i	0.8	0.738	1.7	-2.0	-13.3	1.0	6.3	3.0
Cc1nn2cc(-c3cccc(Cl)c3)cnc2c1Br	-0.9	i	-4.0	0.765	4.3	-2.5	15.3	11.7	3.0	10.8
Cc1cc(C(=O)NCc2ccco2)c2cc(F)ccc2n1	0.2	i	1.3	0.642	-1.5	-0.2	-10.4	-1.5	-2.0	-1.8
CCOC(=O)c1c(-c2cccs2)csc1NC(=O)COC(=O)c1c(C)noc1C	x	x	-0.4	0.688	0.7	x	17.2	8.6	x	x
COc1ccc([C@H]2CC(=O)C=C(c3ccc(F)nc3)C2)cc1OC	-0.9	i	0.4	x	0.1	-1.5	x	-2.8	-1.6	7.7
O=C(NCCOC(=O)Nc1cccc2ccccc12)OCc1ccccc1	1.7*	i	x	0.69	3.2	-6.8	x	x	-33.5*	-33.8*
Cc1c(C(=O)NCCC2=CCCCC2)sc2ncnc(N3CCCCC3C)c12 (stereo not given)	3.4	i	0.7	0.634	17.9	-2.9	-20.7	2.2	-8.2	-10.1
CCCn1c(SCC(=O)Nc2cccc(C(=O)OC)c2)nnc1-c1cccnc1	x	x	0.8	0.722	4.4	x	-3.6	-0.2	x	x
N#Cc1c(NC(=O)c2ccccc2Cl)n(Cc2ccccc2)c2nc3ccccc3nc12	7.0*	i	0.1	x	x	2.5	x	106.1*	-16.6*	-3.0*
CC(C)CC(=O)NNC(=S)NCc1ccco1	-0.5	i	0.2	0.663	2.7	0.8	-2.2	1.9	6.4	12.3
O=S(=O)(Nc1ccc(-n2cnnn2)cc1)c1cccc(Cl)c1	0.8	i	x	0.627	5.0	-2.1	x	x	1.1	-4.9
O=C(Cc1ccc(-n2cccc2)cc1)N1CCN(c2ccccc2F)CC1	x	x	0.3	0.678	-2.1	x	17.9	x	x	x
CN(C)CCN(C(=O)CCS(=O)(=O)c1ccccc1)c1nc2c(F)cccc2s1	2.1	i	0.2	0.642	2.1	-2.8	28.4	-5.6	8.5	6.4
CC1CCC2C(C1)c1sc(=O)[nH]c1SC2(C)C (stereo not given)	x	x	-0.6	0.675	-0.2	x	24.9	4.7	x	x
CCOc1cc(C(=O)N(C)CC(=O)Nc2cccc(F)c2)ccc1OCC(=O)N1CCOCC1	0.3	i	2.7	0.72	-3.2	11.1	-7.6	-5.2	12.4	19.5

These rows are one share of the data. The share of hits here may be higher or lower than overall.
